gsp ag = activates gsp, the McCune-Albright syndrome mutation; Potency, µM (highest dose often 76.9 µM), inactives show at the highest dose activation (cAMP increase), hits mostly activators; gsp mutant cells, cAMP HTRF, 30 min; control for the full effect not named in the record; hit rate 0.13% among 340,000; active = well fitted activation curve with a large enough effect; inconclusive = small, poorly fitted or top-dose-only effect, or another doubt; inactive = no such curve, though single readings can be large or run the other way; cell line not stated here;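 further: phosphodiesterase inhibitor Ro 20-1724 added with compounds to block cAMP breakdown; potency means the concentration at half of the fitted maximal effect; nearly all actives have a fitted effect of over 60% in size; about a fifth of the inactives were tested at one dose only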
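Cells stably selected in G418 were plated at 2000/well, grown 16-24 hr, then given compounds in DMSO with the PDE inhibitor […] (300 uM solution added) for 30 min at 37C; cAMP was read by HTRF.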
D2 potentiator = potentiates the human D2 dopamine receptor allosterically; hit rate 0.23% among 360,000; AID 624464; DiscoveRx D2 beta-arrestin cells, luminescence, 90 min; 100% = 57 uM dopamine signal; P14416; potentiation, % (test concentration not listed); active = potentiation of 50% or more; inconclusive = 30% to 50%; inactive = 30% or less;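 further: compound concentration not given in the record; tested on top of an EC20 dose of dopamine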
Target sequence (P14416 whole entry, looked up): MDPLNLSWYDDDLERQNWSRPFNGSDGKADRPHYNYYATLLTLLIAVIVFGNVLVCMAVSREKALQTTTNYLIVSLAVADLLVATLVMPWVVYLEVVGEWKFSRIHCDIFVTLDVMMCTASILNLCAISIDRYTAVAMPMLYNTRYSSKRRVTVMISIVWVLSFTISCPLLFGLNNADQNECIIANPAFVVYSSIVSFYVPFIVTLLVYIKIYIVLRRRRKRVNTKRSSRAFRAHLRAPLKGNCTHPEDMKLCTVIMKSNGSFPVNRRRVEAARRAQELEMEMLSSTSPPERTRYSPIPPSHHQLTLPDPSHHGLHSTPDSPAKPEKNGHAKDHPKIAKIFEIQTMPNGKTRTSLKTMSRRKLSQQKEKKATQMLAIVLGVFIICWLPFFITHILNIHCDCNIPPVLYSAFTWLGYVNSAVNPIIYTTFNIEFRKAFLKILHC
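PathHunter D2 cells, attached overnight at 37 deg C, received compound in DMSO plus dopamine at EC20 (50 nM final) for 90 min at 37 deg C. Beta-arrestin recruitment was read as luminescence after 1 h with detection reagent at ambient temperature.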
Six1-Eya2 inh = blocks human Six1 binding to Eya2 | Q15475+O00167 | AlphaScreen GST-Six1/His-Eya2 binding, biochemical; hits give low values; control for the full effect not named in the record | activity change, % (concentration not given with the values) | hit rate 0.56% among 360,000 | AID 651725; in the data active = activity change below about -65%; inconclusive = about -30% to -65%; inactive = above about -30%; further: on the % scale 0 is the no-effect control and ±100 the full control effect
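AlphaScreen luminescence read after one hour at 37 °C in darkness. Pin-transferred compounds met GST-Six1 and His-Eya2 protein (5X stock 250 nM/500 nM) plus glutathione donor and Ni-chelate acceptor beads (5X, 50 ug/mL).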
gsp antagonist = antagonists of gsp mutant (McCune-Albright syndrome); gsp-mutant cells, cAMP HTRF, 30 min; control for the full effect not named in the record; Potency, µM (doses to about 76.9 µM), for the others: at the highest dose activity change, negative = inhibition, actives largely listed as inhibitors; hit rate 0.4% among 340,000; active = falling curve of any shape with a large fitted effect; inconclusive = falling curve, mostly with a smaller effect; inactive = flat or rising curve; cell line not stated here;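 further: intracellular cAMP measured with PDE inhibitor Ro 20-1724 present during compound exposure; potency means the concentration at half of the fitted maximal effect; on the % scale 0 is the no-effect control and ±100 the full control effect; nearly all actives have a fitted effect of over 65% in size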
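HTRF cAMP measurement after 30 min RT detection following 30 min, 37C compound treatment alongside […] (added as 300 uM solution) in G418-selected cells seeded at 2000/well and grown 16–24 h.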
CtBP-E1A inh = blocks the CtBP interaction with E1A | AlphaScreen GST-E1A/His-CtBP binding, 1536-well; hits give low values; control for the full effect not named in the record | activity change, % (concentration not given with the values) | hit rate 0.49% among 340,000 | AID 651724; in the data active means activity change below about -65%; inconclusive means about -30% to -65%; inactive means above about -30%; further: on the % scale 0 is the no-effect control and ±100 the full control effect
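In 5 uL wells, 23 nL compound meets equimolar GST-E1A and His-CtBP (5X stock 125 nM each) for 2 h, 37 °C. Beads (5X, 50 ug/mL) then 1 h, 37 °C, dark.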
D2 agonist = human D2 receptor agonism in beta-arrestin assay. activation, % (concentration not given with the values). DiscoveRx PathHunter D2 beta-arrestin, luminescence, 90 min; 100% = 57 uM dopamine signal. P14416. AID 624465. hit rate 0.084% among 360,000; in the data active = activation above about 40%; inconclusive = about 15% to 40%; inactive = below about 15%; further: compound concentration not given in the record; the text of the record calls up to 30% inactive
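DiscoveRx PathHunter D2 beta-arrestin cells (2,100/well) attached overnight, then compound-stimulated 90 min at 37 C in HBSS/10 mM HEPES/0.1% Tween-20 buffer; beta-galactosidase complementation read by luminescence after 1 h at ambient temperature. Dopamine 57 uM final (EC100) as control.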
Numbers without * were called inactive; ? = inconclusive; · = no result given; [ ] = another dose, or the depositor's remark.

canonical_smiles,gsp ag,D2 potentiator,Six1-Eya2 inh,gsp antagonist,CtBP-E1A inh,D2 agonist
N#Cc1cccc(C(=O)Nc2cccc(S(=O)(=O)N3CCCC3)c2)c1,4%,8,-1,-7%,-5,-0.2
c1cc(-c2ccc3c(c2)CCO3)n2cnnc2c1,·,-6,1,·,-3,-1.8
CCc1noc(C)c1C(=O)Nc1cc(C(F)(F)F)ccc1-n1cncn1,-5%,-14,-5,11%,13,-1.8
CCc1nc2c(OCCOc3ccc(F)cc3)cccn2c1N(C)C(=O)C(C)C,·,-6,1,·,2,3.0
OC[C@@H](O)[C@@H](O)[C@H](O)[C@H](O)CO,·,14,-2,-6%,3,-3.3
COc1ccnc(N2CCN(c3ccccc3)CC2)c1C#N,21%,1,-11,?,-8,-2.7
COc1ccccc1/C=N\NC(=O)c1ccc(COc2ccc(C)c(C)c2)o1,-5%,-8,-3,-4%,-17,-5.4
O=C(c1ccc([N+](=O)[O-])cc1)N(Cc1ccc(Br)cc1)N1C(=O)CCCC1=O,-5%,15,-1,-14%,-6,6.3
Clc1ccc(CSC2=NCCCN2)cc1Cl,-5%,-17,-1,-1%,4,-4.5
Cc1ccc(S(=O)(=O)N2CCC(=O)N(CCOCc3cccc(C(F)(F)F)c3)CC2)cc1,-24%,-3,1,-12%,1,-10
CC(C)(C)Cc1nc(-c2ccc(Cl)cc2)no1,1%,5,-9,20%,-16,-5.4
CCOC(=O)CSC1=C(C#N)C(c2ccc(F)cc2)C(C(C)=O)=C(C)N1 (stereo not drawn),-48%[inhibitor],-5,11,-11%,10,3.3
N#C/C(=C\c1c[nH]c2ccccc12)c1nnc2n1CCCCC2,6%[15.4 µM],-4,-8,-11%,0,2.6
CCNc1nc(SC(C)C(=O)OC)nc(N(C)C)n1 (stereo not drawn),-2%,-21,5,8%,6,-2.1
O=C(N/N=C/c1ccco1)c1ccc(C(=O)N/N=C/c2ccco2)o1,-68%[inhibitor],17,?,-10%,?,0.2
O=C(NCCN1C(=O)CCC1=O)c1ccncc1,?,-40,0,7%,5,-2.4
Cc1cc(=O)n2c3ccccc3n(C)c2n1,20%[15.4 µM],4,-6,7%,-19,1.4
Cc1ccccc1C(=O)NC(NCc1ccco1)C(Cl)(Cl)Cl (stereo not drawn),-16%,-4,2,-9%,-7,-0.5
O=C(CCCC(=O)N1CCCc2ccccc21)N1CCCc2ccccc21,-10%,-19,-1,-8%,0,-2.3
CC(=O)OCCn1c2nc(=O)[nH]c(=O)c-2nc2cc(C)c(C)cc21,?,-3,-4,5%,·,-1.6
O=C(NC1CCCC1)C(NS(=O)(=O)c1cccc2nsnc12)c1ccccc1 (stereo not drawn),-18%,-15,0,1%,-5,-2.3
Cc1cccc(C(=O)Oc2ccccc2C(=O)N2CCOCC2)c1,?,-8,6,6%,·,-5.4
COc1cc(S(=O)(=O)N(Cc2ccccc2)CC2CCCO2)ccc1-n1cnnn1 (stereo not drawn),-2%[15.4 µM],-6,-6,-10%,0,-3.6
CCN(CC(=O)Nc1c(F)cccc1F)C(=O)c1cc(S(=O)(=O)N2CCOCC2)ccc1N1CCCC1,-9%,-19,4,2%,1,3.6
CCc1cc(C(=O)NCC(c2cccs2)N2CCOCC2)sc1C (stereo not drawn),8%[15.4 µM],-38,-2,-7%,-1,-2.0
Cn1c(=O)c2c(-c3ccccc3)n(N3CCOCC3)cc2n(C)c1=O,-37%[inhibitor],9,3,-12%,-1,-1.7
CCN(CC)C(=O)CSc1nc2cc(OC)c(OC)cc2c(=O)n1Cc1ccc(Cl)cc1,-26%,-7,0,1%,0,-0.3
CCN(CC)S(=O)(=O)c1cccc(C(=O)/C=C2/N(C)c3ccccc3C2(C)C)c1,-18%,0,68,-16%,27,-1.0
CCN(CC)c1ccc(NC(=O)c2ccc(Cl)nc2)cc1,3%,-2,-10,7%,-6,-1.7
Cc1cc(NC(=O)c2cccs2)cc(-c2nc3ncccc3o2)c1O,-37%[inhibitor],-2,?,-21%,-4,1.3
Cc1ccc(C(=O)N[C@H](C(=O)Nc2ccc(N3CCOCC3)cc2)C(C)C)cc1,-10%,-2,3,9%,4,-2.8
Cc1onc(-c2ccccc2)c1C(=O)NC(=S)Nc1sc2c(c1C#N)CCCC2,?,-4,-8,-22%,-14,-3.9

Two records picked at random from those above:
canonical_smiles,gsp ag,D2 potentiator,Six1-Eya2 inh,gsp antagonist,CtBP-E1A inh,D2 agonist
Cc1cc(NC(=O)c2cccs2)cc(-c2nc3ncccc3o2)c1O,-37%[inhibitor],-2,?,-21%,-4,1.3
CCN(CC)S(=O)(=O)c1cccc(C(=O)/C=C2/N(C)c3ccccc3C2(C)C)c1,-18%,0,68,-16%,27,-1.0

(more compounds)
canonical_smiles,gsp ag,D2 potentiator,Six1-Eya2 inh,gsp antagonist,CtBP-E1A inh,D2 agonist
CCOc1cc(/C=C2\SC(=O)N(CC(=O)Nc3ccccc3F)C2=O)cc([N+](=O)[O-])c1O,-30%[15.4 µM],-9,-20,-41%,·,2.1
Cc1cc(C)n(CC(O)CN(c2ccccc2)S(=O)(=O)c2ccc3ccccc3c2)n1 (stereo not drawn),-41%[inhibitor],-13,-3,7%,-12,0.7
CCN(CC)C(=O)C1=C(C)N(CCCN2CCCC2=O)C(=O)C(CC(=O)NCCCN(C)C)C1 (stereo not drawn),-43%[inhibitor],0,4,·,6,-7.3
Cc1ccccc1S(=O)(=O)c1cc(C#N)c(=O)[nH]c1N,-1%,-5,3,3%,-6,-5.6
CCOC(=O)c1cc(CC)sc1/N=C/C1C(=O)CCCC1=O,32%,1,-14,-12%,-8,4.7
N#Cc1cccc(C(Br)S(=O)(=O)c2ccccc2)c1 (stereo not drawn),?,-7,5,·,-9,-3.8
CCOc1ccc2c(c1)c(N=O)c(O)n2C,-9%,-8,-4,-5%,-5,-1.0
COc1ccc(-c2nc(CS(=O)CC(=O)NCc3ccc(Cl)cc3)c(C)o2)cc1OC (stereo not drawn),34%,-13,1,-8%,-1,1.8
COc1ccc(-c2c(NC(=O)c3ccco3)oc3c(C)cccc3c2=O)cc1,2%,0,1,-11%,-6,-5.1
CN(C)C(=O)N=NC(=O)N(C)C,·,12,1,-6%,4,-1.5
Cc1ccccc1NC(=O)Nc1ccccc1C(=O)NCc1ccccc1,-28%,29,12,11%,-1,-2.5
Cc1ccc(-c2nn3nnnc3c3ccccc23)cc1,-12%,-19,19,5%,3,0.7
CSc1cnc2c(N)nc(N(C)C)nc2n1,8%,-6,0,-4%,-6,-0.5
COc1ccc(-c2ccc(SCC(=O)N3c4ccccc4CC3C)nn2)cc1OC (stereo not drawn),-40%[inhibitor],5,-28,-5%,?,2.5
CCc1[nH]c(=O)[nH]c1C(C)S(=O)(=O)c1ccc(C)cc1 (stereo not drawn),4%[15.4 µM],-10,0,-6%,9,0.6
Cc1ccc(S(=O)(=O)c2c(C)nn(C(C)(C)C)c2OC(=O)CC(C)C)cc1,10%[15.4 µM],-9,21,-9%,11,-1.7
COc1cc(C(=O)NNC(=O)/C=C/c2ccccc2)cc(OC)c1OC,?,-5,3,6%,-29,2.5
CCOC(=O)CSC1=C(C#N)C(c2ccc(C)s2)CC(=O)N1 (stereo not drawn),?,-2,1,5%,7,-1.2
COC(=O)c1ccc(CN(c2ccccc2Cl)S(C)(=O)=O)cc1,-19%,0,-7,-3%,-1,3.6
CCOc1ccc(N2C(=O)CC(Sc3nccc(C)n3)C2=O)cc1 (stereo not drawn),13%,-1,-3,9%,4,-0.5
CCCCN1C[C@H](CSC)[C@@H](CC(=O)Nc2ccc(OC)cc2)C1=O,-5%,-1,-2,·,-5,-1.3
CC1CN(C(=O)c2ccc(COc3ccc4ccccc4c3)o2)CC(C)O1 (stereo not drawn),16%,-11,-5,-9%,4,-4.0
COc1ccc(CNC(=O)C2(C)Cc3c(-c4ccc5c(c4)OCO5)ccnc3O2)cc1OC (stereo not drawn),·,5,-9,·,-4,8.7
Cc1ccccc1SCCNC(=O)c1ccccc1Br,10%,-5,4,-8%,0,0.3
FC(F)(F)c1cccc(OCC2CNC(=S)O2)c1 (stereo not drawn),2%,8,-2,7%,·,-3.0
COc1cc(OC)c(Cl)cc1N,2%,2,-11,-10%,-1,-1.6
Cn1c(-c2ccc(F)cc2)cnc1NCc1ccc(F)cc1F,1%,-65,9,-4%,·,-4.9
Cc1cccnc1C(NC(=O)C1CCN(CCOc2ccc(F)cc2)CC1)c1ccc(Cl)cc1 (stereo not drawn),·,-18,-17,·,-23,0.6
O=C(Cc1csc(NC(=O)Nc2cccc(Cl)c2)n1)NC1CCCC1,6%[15.4 µM],14,0,-16%,-2,3.9
COc1ccc(S(=O)(=O)N2CCCCCC2)cc1C(=O)N(C)CC(=O)Nc1ccccc1C(F)(F)F,3%,-1,11,-28%,4,15
CCc1nnc(NC(=O)CSc2nnc(CSc3nc(C)cc(C)n3)n2C)s1,7%,25,5,-1%,6,0.2
CCCN1CCN(C(=O)c2cc(COc3ccc(F)cc3F)on2)CC1,4%,-16,-1,-14%,6,-5.1
O=C(CN1CCC(C(=O)c2ccc(F)cc2)CC1)Nc1ccc(F)cc1,-25%,-34,3,10%,2,-2.0
CCn1c(SCC(=O)NCC2CCCO2)nnc1-c1ccccc1OC (stereo not drawn),6%,4,-1,18%,3,-5.0
CCC1(C)Cc2ccccc2-c2nc3n(c(=O)c21)CC(C(=O)O)S3 (stereo not drawn),0%,8,-4,3%,0,0.5
Cc1ccc(C)c(OCc2cc(C(=O)N3CCN(c4ccccc4)CC3)no2)c1,-12%,-1,-6,-22%,-2,-0.7
CCn1c(SCC(=O)Nc2ccc3c(c2)oc2ccccc23)nnc1-c1ccc(N)cc1,?,2,-7,6%,-3,2.9
N#CCC(=N)N1CCN(c2ccccc2Cl)CC1,-38%[inhibitor],-31,-2,0%,-1,7.3
CC(C)c1nc(SCC(=O)Nc2nccs2)c2ccccc2n1,16%[15.4 µM],-5,3,3%,-1,-2.5
CCCC(C(=O)NCCC(C)C)N(Cc1ccc(F)cc1)C(=O)c1snc(C(N)=O)c1N (stereo not drawn),13%,1,11,-3%,·,-3.4
CCO[C@@H]1OC(C(=O)O)=C[C@H](c2csc3ccccc23)[C@H]1CCCO,·,-4,1,5%,-10,-3.4
CC(=O)c1cccc(NC(=S)N2CCC(Cc3ccccc3)CC2)c1,-1%[15.4 µM],-17,1,·,-6,-1.7
CCOC(=O)C1(Cc2cccc(Cl)c2)CCCN(C(=O)c2cccnc2)C1 (stereo not drawn),-3%[15.4 µM],-9,-9,-4%,0,-6.2
CCN(CC(=O)Nc1ccc(NC(C)=O)cc1)C(=O)c1cc(CN2C(=O)c3ccccc3C2=O)ccc1OC,?,-4,-2,-8%,1,1.4
